Screening results from PubChem BioAssay.
INS promoter inh: inhibitors of insulin promoter-driven GFP, primary screen, imaging, TRM-6 cells (human fetal islet line), eGFP reporter, cell count; reporter expression induced with tamoxifen; inhibition, % at 2 µM; actives 0.9% (n = 130,000);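 active = inhibition above the mean plus 3 SD, with well images judged a real hit on visual review, cut at about 60% in these data, passing the limit was not always enough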
GALR2 agonist: GALR2 receptor agonists, primary screen, cell-based; activation, %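 (tested at 5 µM)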; actives 0.48% (n = 140,000); Galanin receptor type 2 (Homo sapiens), O43603; GALR2-expressing cells, agonist activation read-out; AID 803, 2007;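 active = above mean plus 3 SD of all compounds, about 5% in these data, not always enough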;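 note: 0% = vehicle buffer wells and 100% = reference agonist at full effect; tested in CHO reporter cells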
Target sequence (O43603 whole entry, looked up): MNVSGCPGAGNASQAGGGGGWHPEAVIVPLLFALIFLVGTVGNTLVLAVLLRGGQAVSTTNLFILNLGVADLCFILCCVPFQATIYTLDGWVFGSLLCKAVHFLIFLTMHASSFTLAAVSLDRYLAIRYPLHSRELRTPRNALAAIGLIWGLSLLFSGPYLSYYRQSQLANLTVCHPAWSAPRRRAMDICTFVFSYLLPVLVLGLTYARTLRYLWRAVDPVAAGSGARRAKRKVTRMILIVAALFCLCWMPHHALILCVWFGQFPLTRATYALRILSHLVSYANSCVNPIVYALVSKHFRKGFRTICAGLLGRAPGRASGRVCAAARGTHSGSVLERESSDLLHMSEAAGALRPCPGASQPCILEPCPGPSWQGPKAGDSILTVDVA
HSV augment: enhancers of HSV replication in host cells, fold increase, host cell viability; maximum fold increase; actives 0.005% (n = 220,000); AID 1956, 2009; HSV replication augmentation in cells;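 active = peak rise of 1.5-fold or more in the series; tested in PC3 cells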;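 note: first round at 10 µM; read as green reporter fluorescence; hits show the peak of a series up to 25 µM; 1 = signal of infected wells without compound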
RGS16-Gao HTS: modulators of RGS16 binding to Galphao, primary screen, biochemical, human proteins, multiplexed bead flow cytometry; Regulator of G-protein signaling 16 (Homo sapiens) + Guanine nucleotide-binding protein …; bead-based flow cytometry RGS16-Galphao binding, fluorescence; actives lie on both sides; binding response (% of control), % at 10 µM; actives 0.38% (n = 220,000); AID 1441, 2008;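 active = below 25% or above 175%, edge rows of some plates excepted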;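 note: Galphao activated by GDP with aluminum fluoride before binding; 100% = wells without compound and 0% = beads without RGS; some results beyond the cut were filed as inactive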
Target sequence (O15492 whole entry, looked up): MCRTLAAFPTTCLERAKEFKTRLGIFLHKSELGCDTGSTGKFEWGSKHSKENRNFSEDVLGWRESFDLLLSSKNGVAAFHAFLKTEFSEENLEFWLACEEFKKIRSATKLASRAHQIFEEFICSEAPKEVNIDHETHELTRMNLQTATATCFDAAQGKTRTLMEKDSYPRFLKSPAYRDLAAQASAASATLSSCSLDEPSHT
Target sequence (P09471 whole entry, looked up): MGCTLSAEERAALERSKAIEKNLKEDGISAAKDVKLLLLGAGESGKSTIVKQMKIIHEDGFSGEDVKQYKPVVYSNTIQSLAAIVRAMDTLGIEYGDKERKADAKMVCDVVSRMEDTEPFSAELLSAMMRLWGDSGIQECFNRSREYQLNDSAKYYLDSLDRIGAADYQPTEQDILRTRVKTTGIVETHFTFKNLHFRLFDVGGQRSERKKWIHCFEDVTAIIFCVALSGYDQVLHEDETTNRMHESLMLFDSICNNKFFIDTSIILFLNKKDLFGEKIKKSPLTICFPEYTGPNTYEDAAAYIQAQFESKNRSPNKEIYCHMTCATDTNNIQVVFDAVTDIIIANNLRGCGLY
PKD1 kinase inh: inhibitors of human PKD1 kinase, biochemical, fluorescence polarization; AID 797, 2007; actives 0.056% (n = 200,000); inhibition, %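 (about 10 µM by stock and volumes)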; Serine/threonine-protein kinase D1 (Homo sapiens), Q15139; PKD1 kinase fluorescence polarization assay;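 active = inhibition of 50% or more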;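 note: controls were vehicle for no effect and a reference inhibitor for full effect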
INS promoter inh cell count: further read-out of INS promoter inh, marked with its call; normalized cell count, %; measured here: cell count, toxicity; reference of the scale not given here;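 cells exposed to compound for 48 h; stained nuclei by imaging scaled within each plate; lower means fewer cells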
HSV augment primary fold: further read-out of HSV augment, marked with its call; fold increase; compound at 10 µM; measured here: primary screen fold increase 10 uM; tested in PC3 cells;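 GFP signal in the first replicate; 1 = infected wells without compound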
Active calls of the source: *; i = inactive; x = not tested or not shown.

molecule | PKD1 kinase inh | HSV augment primary fold | HSV augment | RGS16-Gao HTS | INS promoter inh | GALR2 agonist | INS promoter inh cell count
CCOC(=O)c1cc(-c2csc(-c3cccc(Cl)c3)n2)on1 | x | 0.99 | i | 102 | x | x | x
CCOc1ccc(NC(=O)CC2C(=O)N(C)C(=S)N2Cc2ccco2)cc1 (stereo not drawn) | 8 | 0.9 | i | 101 | -27 | -2.3 | 119
CCC1CCCCN1C(=O)COc1ccc(F)cc1 (stereo not drawn) | -6 | 1.1 | i | 72 | -29 | x | 110
COc1cc(-c2[nH]nc3c2C(c2ccoc2)C(C#N)=C(N)O3)cc(OC)c1OC (stereo not drawn) | -18 | 1.1 | i | 59 | -175 | -1.6 | 106
CCOC(=O)c1cc(-c2ccc(C)cc2)n(CCC(=O)NC(C)CC)c1C (stereo not drawn) | 0 | 0.9 | i | 102 | -12 | -3.3 | 142
CCOC(=O)CNC(=S)NN(C)C | x | 0.95 | i | 97 | x | x | x
COc1ccc(CCNC(=O)CSc2nc(C)nc3sccc23)cc1OC | x | 1 | i | 102 | x | x | x
CCc1nn(CC(=O)NCCN2CCN(C)CC2)c(=O)c2cc3occc3n12 | -2 | 0.88 | i | 113 | x | -2.1 | x
O=C(Cc1coc(-c2ccc(F)cc2)n1)NCc1ccccc1 | -4 | 0.92 | i | 95 | 23 | -2.1 | 138
COc1ccc2c(=O)c(-c3ccc4c(c3)OCO4)coc2c1 | -5 | 0.72 | i | 103 | -60 | -1.4 | 134
Cc1cc(OCC(O)CN2C(C)CCCC2C)ccc1C(C)C (stereo not drawn) | -14 | 0.83 | i | 100 | x | x | x
Clc1ccc(SCc2nc3ccccc3[nH]2)cc1 | 6 | 0.95 | i | 99 | x | -4.8 | x
O=S(=O)(NCc1cccs1)NCc1ccccc1F | 2 | x | x | 103 | 15 | x | 114
CCC1CCCCN1C(=O)CCc1nnc(C2CCCCC2)o1 (stereo not drawn) | -5 | 0.95 | i | 107 | x | x | x
COc1ccc(-c2[nH]c3ccccc3c2SCCNC(=O)c2ccccc2)cc1 | -4 | x | x | 62 | -10 | 0.5 | 111
CN(C)C(=O)CN1CCN(C(=O)CCl)CC1 | -6 | 0.94 | i | 100 | -78 | x | 66
Fc1cccc(Cl)c1CNn1cn[nH]c1=S | -7 | 0.97 | i | 99 | x | x | x
CC(=O)C1=C(C)NC(C)=C(C(C)=O)C1c1ccccc1 | 0 | 1 | i | 105 | x | x | x
Cc1ccccc1Cn1c(=O)sc2ccccc2c1=O | 0 | 1.3 | i | 100 | -36 | x | 90
COc1ccc(CSc2nnc(Cc3sc(-c4ccccc4)nc3-c3ccccc3)o2)cc1 | -1 | 1.1 | i | 105 | -12 | -3.5 | 109
Cc1ccc(C(C(=O)NCc2ccco2)N(C(=O)CNC(=O)c2cccs2)c2ccc(C)cc2)cc1 (stereo not drawn) | 3 | 0.94 | i | 111 | -25 | -1.6 | 74
C/C(=N\Nc1cc(C(F)(F)F)ccc1Cl)c1ccccc1O | -4 | 0.96 | i | 99 | x | -0.3 | x
Cc1ccc(-n2cc(CN3CCN(c4ccccn4)CC3)c(-c3ccc(F)cc3)n2)cc1 | 5 | 1 | i | 98 | x | x | x
CC1CC(C)CN(S(=O)(=O)c2ccc3c(c2)n(C)c(=O)c(=O)n3C)C1 (stereo not drawn) | x | 0.9 | i | 90 | x | x | x
COc1ccc(C(=O)NC(=S)Nc2nnn(C)n2)cc1 | -1 | 1.1 | i | 113 | x | -0.1 | x
CCN(CC)c1ccc(C(=O)NC(=S)N2CCN(Cc3ccc4c(c3)OCO4)CC2)cc1 | 3 | 1.1 | i | 103 | -123 | -0.9 | 112
Brc1ccc(/C=N/Nc2ccccn2)cc1 | -8 | 0.91 | i | 103 | 25 | x | 122
CCC(=O)Oc1ccc2oc(=O)cc(C)c2c1 | -3 | 1 | i | 106 | 33 | -0.4 | 112
O=c1c2cc3c(=O)n(-c4ccccc4O)c(=O)c3cc2c(=O)n1-c1ccccc1O | 3 | 0.73 | i | 101 | x | x | x
COC(=O)c1ccc(NC(=O)CN2C(=O)CNC2=O)cc1 | 4 | 1.1 | i | 105 | 0 | -0.9 | 131
COc1ccc(NC(=O)C2(c3cccs3)CCOCC2)cc1 | 1 | 0.9 | i | 101 | x | x | x
O=C1CN(C(=O)CSc2nnnn2-c2ccc(Cl)cc2)c2ccccc2N1 | 3 | 0.94 | i | 108 | -46 | -1.4 | 77
CCN(c1cccc(C)c1)S(=O)(=O)c1cnc[nH]1 | -2 | 0.77 | i | 97 | -50 | -1.8 | 125
C=CCn1c(SCC(=O)Nc2ccc3c(c2)OCCO3)nnc1-c1ccco1 | 1 | 0.77 | i | 102 | 21 | -0.5 | 110
O=C(CO/N=C/c1ccc(Cl)cc1Cl)NNC(=O)c1ccc(Cl)cc1Cl | x | 1.1 | i | 100 | x | x | x
COc1ccc(OC)c(NC(=O)COC(=O)CSc2ccc(Cl)cc2)c1 | -7 | 0.87 | i | 94 | 40 | -0.8 | 43

Exported with values under each structure: 2 of the compounds above.
Values run as follows: PKD1 kinase inh | HSV augment primary fold | HSV augment | RGS16-Gao HTS | INS promoter inh | GALR2 agonist | INS promoter inh cell count
CCOC(=O)CNC(=S)NN(C)C
    x | 0.95 | i | 97 | x | x | x
COc1ccc(CCNC(=O)CSc2nc(C)nc3sccc23)cc1OC
    x | 1 | i | 102 | x | x | x

Further records:
molecule | PKD1 kinase inh | HSV augment primary fold | HSV augment | RGS16-Gao HTS | INS promoter inh | GALR2 agonist | INS promoter inh cell count
CCOCC(=O)Nc1ccc([N+](=O)[O-])cc1OC | -1 | 0.98 | i | 101 | x | x | x
CN(C)C(=O)NC1C=CS(=O)(=O)C1 (stereo not drawn) | 14 | 1.1 | i | 97 | 21 | -0.2 | 103
O=C(CN(CCCN1CCOCC1)C(=O)Cn1nnc(-c2ccc(F)cc2)n1)NC1CCCCC1 | 7 | 0.84 | i | 106 | 15 | -2.4 | 111
CCOC(=O)c1cnc(SC)nc1Oc1cccc(NC(=O)c2ccc(C)cc2)c1 | -1 | 0.91 | i | 106 | 18 | -2.0 | 134
COc1cc(/C=N/n2c(-c3ccccc3)n[nH]c2=S)cc(OC)c1OC | x | 0.89 | i | 104 | x | x | x
CSc1nc2c(c(=O)[nH]1)C(c1ccc(Cl)cc1)CC(=O)N2 (stereo not drawn) | -1 | 0.95 | i | 91 | x | x | x
CCOC(=O)c1c(NC(=O)CNC2CCCCC2)sc(C)c1C | -4 | 1.1 | i | 94 | -27 | x | 71
NC(=S)N=Nc1c(O)[nH]c2ccc(F)cc12 | 6 | 1 | i | 98 | x | -0.8 | x
CC1=C(C#N)CCC(=O)N1Cc1c(C)cc(C)cc1C | -7 | 0.93 | i | 99 | -20 | -2.5 | 90
COC(=O)C1=C(C(=O)c2ccc(C)cc2)C(c2ccc(OC)c(OC)c2)n2nnnc2N1 (stereo not drawn) | 7 | 0.99 | i | 108 | 31 | -0.1 | 79
COc1ccc(C2c3[nH]c4ccccc4c3CCN2CCCn2cccn2)cc1C (stereo not drawn) | -1 | 0.99 | i | 116 | x | x | x
O=C(CN1CCN(C(=O)c2ccco2)CC1)Nc1ccc(Cl)c(S(=O)(=O)N2CCOCC2)c1 | -3 | 1.1 | i | 101 | 45 | x | 52
COc1cc(-c2nc3cnccn3c2Nc2ccc(C(C)C)cc2)ccc1O | -7 | x | x | 105 | -18 | 1.0 | 179
Cc1ccc(C(=O)NCc2n[nH]c(=S)n2-c2ccccc2)cc1[N+](=O)[O-] | 3 | 1.3 | i | 91 | -8 | x | 168
COC(=O)Nc1ccc(S(=O)(=O)Nc2cnc3ccccc3n2)cc1 | 1 | 1.1 | i | 100 | 16 | x | 117
CCN(Cc1ccccc1)C(=O)c1ccc(SC)cc1OC | -2 | 1.1 | i | 101 | 38 | x | 100
Cn1c(CN2CCOCC2)nnc1SCC(=O)Nc1ccc2c(c1)OCCO2 | -9 | 1.3 | i | 112 | -20 | 2.7 | 122
COc1ccc(C(=O)/C=C/c2ccc(F)cc2)c(OC(=O)c2ccc([N+](=O)[O-])cc2)c1 | 2 | 0.96 | i | 94 | 17 | -1.2 | 109
CC(C(=O)Nc1ccccc1)N(C)CCOc1ccc(Br)cc1 (stereo not drawn) | 0 | 0.9 | i | 99 | x | x | x
NC(=O)c1ccc(NC(=O)COC(=O)CCc2ccc(S(=O)(=O)N3CCCCC3)cc2)cc1 | 5 | 0.93 | i | 99 | 25 | x | 72
O=C(Cn1nc(-c2ccccc2)ccc1=O)NCC1COCCO1 (stereo not drawn) | -8 | 1.1 | i | 103 | 100* | -3.6 | 16*
OCCN(CCO)c1nc2ccccc2[nH]1 | x | 0.98 | i | 105 | x | x | x
O=C(CN1CCC(n2nnc3cc(C(F)(F)F)ccc32)CC1)N1CCc2ccccc21 | -1 | 0.95 | i | 107 | x | -1.7 | x
CN(Cc1ccccc1)C(=S)Nc1ccc(OC(F)F)cc1 | -11 | 0.85 | i | 107 | 6 | -1.0 | 79
COCCCNC(NC(=O)c1ccc(Cl)cc1)C(Cl)(Cl)Cl (stereo not drawn) | 2 | 0.89 | i | 104 | x | -1.6 | x
O=S(=O)(c1ccc(N2CCCC2)cc1)C(F)(F)F | 19 | 1 | i | 104 | -110 | -1.3 | 116
CCN1C(=O)/C(=C\c2cn(-c3ccccc3)nc2-c2cccnc2)SC1=S | -2 | 1.1 | i | 99 | -46 | x | 119
O=C(Nc1ccccc1C(=O)N1CCCC1)c1cccc(S(=O)(=O)N2CCCCC2)c1 | -2 | 1.1 | i | 98 | -87 | 0.1 | 26
CCOC(=O)C1CCN(S(=O)(=O)c2ccc(C(C)=O)cc2)CC1 | 8 | x | x | 127 | -117 | 0.8 | 121
Cc1ccc(NC(=O)CCl)cc1S(=O)(=O)N1CCCCCC1 | 3 | 0.96 | i | 105 | 0 | x | 96
O=C(CSc1ccc(-c2ccc(F)cc2)nn1)N1CCCc2ccccc21 | -5 | 0.87 | i | 58 | x | -1.9 | x
COc1ccc2c(c1OC)C(=O)N1N=C(c3ccc(O)cc3)CC21 (stereo not drawn) | 3 | 0.91 | i | 104 | -29 | -2.6 | 58
COc1cccc(/C=N/NC(=O)CNC(=O)c2ccco2)c1O | x | 1 | i | 93 | x | x | x

An excerpt of these results, with values under each structure:
Each structure is followed by: PKD1 kinase inh, HSV augment primary fold, HSV augment, RGS16-Gao HTS, INS promoter inh, GALR2 agonist, INS promoter inh cell count
CC(C(=O)Nc1ccccc1)N(C)CCOc1ccc(Br)cc1 (stereo not drawn)
→ 0, 0.9, i, 99, x, x, x
NC(=O)c1ccc(NC(=O)COC(=O)CCc2ccc(S(=O)(=O)N3CCCCC3)cc2)cc1
→ 5, 0.93, i, 99, 25, x, 72
O=C(Cn1nc(-c2ccccc2)ccc1=O)NCC1COCCO1 (stereo not drawn)
→ -8, 1.1, i, 103, 100*, -3.6, 16*
OCCN(CCO)c1nc2ccccc2[nH]1
→ x, 0.98, i, 105, x, x, x
O=C(CN1CCC(n2nnc3cc(C(F)(F)F)ccc32)CC1)N1CCc2ccccc21
→ -1, 0.95, i, 107, x, -1.7, x
CN(Cc1ccccc1)C(=S)Nc1ccc(OC(F)F)cc1
→ -11, 0.85, i, 107, 6, -1.0, 79
COCCCNC(NC(=O)c1ccc(Cl)cc1)C(Cl)(Cl)Cl (stereo not drawn)
→ 2, 0.89, i, 104, x, -1.6, x
O=S(=O)(c1ccc(N2CCCC2)cc1)C(F)(F)F
→ 19, 1, i, 104, -110, -1.3, 116
CCN1C(=O)/C(=C\c2cn(-c3ccccc3)nc2-c2cccnc2)SC1=S
→ -2, 1.1, i, 99, -46, x, 119
O=C(Nc1ccccc1C(=O)N1CCCC1)c1cccc(S(=O)(=O)N2CCCCC2)c1
→ -2, 1.1, i, 98, -87, 0.1, 26
CCOC(=O)C1CCN(S(=O)(=O)c2ccc(C(C)=O)cc2)CC1
→ 8, x, x, 127, -117, 0.8, 121
Cc1ccc(NC(=O)CCl)cc1S(=O)(=O)N1CCCCCC1
→ 3, 0.96, i, 105, 0, x, 96
O=C(CSc1ccc(-c2ccc(F)cc2)nn1)N1CCCc2ccccc21
→ -5, 0.87, i, 58, x, -1.9, x
COc1ccc2c(c1OC)C(=O)N1N=C(c3ccc(O)cc3)CC21 (stereo not drawn)
→ 3, 0.91, i, 104, -29, -2.6, 58
COc1cccc(/C=N/NC(=O)CNC(=O)c2ccco2)c1O
→ x, 1, i, 93, x, x, x
